Screening results: PubChem, National Center for Advancing Translational Sciences (NCATS)
SARS PLP yeast: qHTS of Yeast-based Assay for SARS-CoV PLP; S. cerevisiae expressing SARS-CoV PLpro, growth rescue; control for the full effect not named in the record; Potency, µM (doses to about 32.9 µM), for inactives: at the top dose activity, positive = growth rescue; 0.19% of 330,000 active; AID 485353, 2010; active means well fitted rising curve with a large enough effect; inconclusive means small, poorly fitted or top-dose-only effect; inactive means no such curve, though single readings can be large or run the other way; also: 0% is about no effect; nearly all actives have a fitted effect of over 55% in size; growth read by luminescence after 48 h
RE007 growth inh: qHTS Assay for Inhibitors of the HIV-1 protein Vpr; S. pombe RE007 Vpr strain, BacTiter-Glo ATP luminescence, 24 h; control for the full effect not named in the record; Potency, µM (series often up to 92.2 µM), for the others: top-dose activity change, negative = less growth; 0.21% of 360,000 active; active = well fitted falling curve with a large enough effect; inconclusive = small, poorly fitted or top-dose-only effect; inactive = no such curve, though single readings can be large or run the other way;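 also: % is scaled to controls: 0 for no effect and ±100 for the full control effect; nearly all actives have a fitted effect of over 50% in size; the assay follows cell death caused by Vpr and the record does not say whether a fall means rescue or toxicity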
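Fission yeast strain RE007, carrying one chromosomally integrated HIV-1 vpr copy, was seeded at OD 0.01 in PMG+AL medium with 23 nL pinned compound. After 24 h at 30 °C and 99% humidity, viability was read by BacTiter-Glo luminescence.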
Cruzain inh Det: qHTS Assay for Promiscuous and Specific Inhibitors of Cruzain (with detergent); purified cruzain, Z-FR-AMC fluorescence, 0.01% Triton; Cruzipain (Trypanosoma cruzi), P25779; Potency, µM, inactives show max response, negative = inhibition, most hits filed as inhibitors; 0.43% of 200,000 active;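 also: plate controls were neutral wells for no effect and buffer without enzyme for full effect; nearly all actives have a fitted effect of over 40% in size; top concentration of the series not given in the record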
Target sequence (P25779 123-467 limits assumed): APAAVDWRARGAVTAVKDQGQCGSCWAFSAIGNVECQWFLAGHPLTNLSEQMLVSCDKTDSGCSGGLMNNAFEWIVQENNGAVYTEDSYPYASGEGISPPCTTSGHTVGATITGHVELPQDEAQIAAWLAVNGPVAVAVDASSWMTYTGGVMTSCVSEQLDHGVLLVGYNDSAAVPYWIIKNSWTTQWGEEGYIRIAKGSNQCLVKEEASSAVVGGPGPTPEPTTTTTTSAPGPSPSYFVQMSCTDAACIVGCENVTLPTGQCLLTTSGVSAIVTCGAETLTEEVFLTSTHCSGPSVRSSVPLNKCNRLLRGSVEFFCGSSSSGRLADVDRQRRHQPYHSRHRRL
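Compounds were screened in titration against cruzain (1.5 nM) with 0.01% Triton X-100 to counter colloidal aggregation. Activity was the AMC fluorescence increase over 60 s after adding 2 uM Z-FR-AMC at pH 5.5.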
Marburg entry inh: qHTS for inhibitors of binding or entry into cells for Marburg Virus; Potency, µM (top dose mostly 37.8 µM), for the others: at the highest dose activity change, negative = inhibition, most hits filed as inhibitors; 1.8% of 300,000 active; AID 540276, 2011; Marburg virus pseudotyped entry inhibition, cell reporter; control for the full effect not named in the record; about a third of the inactives were read at about 46 µM; active = well fitted inhibition curve with a large enough effect; inconclusive = small, poorly fitted or top-dose-only effect, or effect the other way; inactive = flat fitted curve, though single readings scatter; tested in HEK293 cells; about a fifth of its hits are not listed in these tables; also: % is scaled to controls: 0 for no effect and ±100 for the full control effect; luciferase read-out
Lassa entry inh: qHTS for Inhibitors of binding or entry into cells for Lassa Virus | Potency, µM (highest dose often 37.9 µM), inactives show top-dose activity change, negative = inhibition, actives largely listed as inhibitors | Lassa virus pseudotype entry inhibition, cell reporter; control for the full effect not named in the record | AID 540256, 2011 | 1.2% of 300,000 active; active means well fitted inhibition curve with a large enough effect; inconclusive means small, poorly fitted or top-dose-only effect, or effect the other way; inactive means flat fitted curve, though single readings scatter; tested in HEK293 cells; also: % is scaled to controls: 0 for no effect and ±100 for the full control effect; nearly all actives have a fitted effect of over 50% in size; luciferase read-out
Cruzain noTriton: qHTS Assay for Promiscuous and Specific Inhibitors of Cruzain (without detergent); Cruzipain (Trypanosoma cruzi), P25779; purified cruzain, Z-FR-AMC fluorescence, no detergent; Potency, µM, inactives show max response, negative = inhibition, actives largely listed as inhibitors; 2.3% of 200,000 active; AID 1476, 2009;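 also: plate controls were enzyme without inhibitor for no effect and buffer without enzyme for full effect; nearly all actives have a fitted effect of over 40% in size; top concentration of the series not given in the record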
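Detergent-free condition (0.00005% Triton X-100) in acetate buffer pH 5.5 with DTT. 1.5 nM enzyme and compound were pre-mixed 15 min, then 2 uM Z-FR-AMC substrate added; reaction progress from fluorescence change between first and third reads (60 s).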
StopGo reporter: High Throughput Screening for Foot and Mouth Disease Virus Antivirals; 1.2% of 410,000 active; AID 1159524, 2015; Potency, µM (series often up to 57.9 µM), inactives show at the highest dose signal change, negative = less light; human cells with a luciferase reporter of 2A StopGo recoding; control for the full effect not named in the record; active = well fitted falling curve with a large enough effect; inconclusive = small, poorly fitted or top-dose-only effect; inactive = no such curve, though single readings can be large or run the other way; tested in HEK293T cells; also: % is scaled to controls: 0 for no effect and ±100 for the full control effect; nearly all actives have a fitted effect of over 45% in size; luciferase light after 4 h
NS1 inh: qHTS Assay for Inhibitors of Influenza NS1 Protein Function; S. cerevisiae slowed by influenza A NS1, growth recovery by OD600; Potency, µM (titrated, usually from 46.1 µM), for inactives: at the highest dose activity, positive = more growth; 0.4% of 270,000 active; AID 2326, 2010; active means well fitted rising curve with a large enough effect; inconclusive means small, poorly fitted or top-dose-only effect; inactive means no such curve, though single readings can be large or run the other way; also: nearly all actives have a fitted effect of over 50% in size
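S. cerevisiae expressing influenza A NS1, grown in glucose, washed, then diluted 1:100 into pH 6.0 -URA galactose medium with 23 nl compound. Growth recovery read as OD600; NS1-free strain serves as control.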
* marks the source's active call; other numbers are inactive results; ? = inconclusive; / = not tested or not shown; & = joins results of further samples; [ ] = dose if it differs, or a comment. Unless noted, calls follow the shape of the dose curve; as a rule, active = well fitted curve in the direction sought with a large enough effect; inconclusive = small, poorly fitted or top-dose-only effect, or another doubt; inactive = no such curve, though single readings can be large; an effect the other way counts as inactive or inconclusive. Potency is read from the fitted curve at half-maximal effect. The order is random; any-hit rate near 4.7%.

molecule,SARS PLP yeast,RE007 growth inh,Cruzain inh Det,Marburg entry inh,Lassa entry inh,Cruzain noTriton,StopGo reporter,NS1 inh
COc1cc(NS(=O)(=O)c2ccc3c(c2)n(C)c(=O)n3C)cc(OC)c1,14%,4%,-0.5%,?,-2%,11%,38%[activator],4%
CN1CCN(c2ccc([N+](=O)[O-])cc2C(=O)c2ccc(Cl)cc2)CC1,-2%,-2%,-2.4%,?,-17%,1%,0%,-4%
CC(NC(=O)CCNC(=O)c1ccco1)c1ccc(F)cc1 (stereo unspecified),0%,-3%,/,/,/,/,-18%,9%
NC(=O)CSc1nnc(-c2ccncc2)n1-c1ccc(Cl)cc1,-2%,2%,-1.7%,/,/,-3%,-23%,-1%
CN(C)S(=O)(=O)c1cc(NC(=O)CSc2nn(-c3ccc(Cl)cc3)c(=S)s2)ccc1Cl,?,-5%,-3.6%,?,?,25µM*,?,?
CCN(CC)S(=O)(=O)c1ccc(OCC(=O)NC(=O)Cc2ccccc2)c([N+](=O)[O-])c1,5%,13%,/,-4%[46.1 µM],-16%,/,-5%,/
CC(=O)c1c(C)c(C)c2n1CCn1c(C)ccc1-2,0%,-21%,/,/,/,/,3%,-1%
CCNC1(C(N)=O)CCN(Cc2ccccc2)CC1,/,5%,/,-4%[46.1 µM],24%[46.1 µM],/,-7%,/
Nc1ccc2nc(-c3cccnc3)[nH]c2c1,-14%,-8%,-4.6%,?,?,0%,56%[activator],8%
COc1cc(OC)c2c(c1)OCC1CON(C)C21 (stereo unspecified),2%,-11%,/,9%,6%,/,-4%,/
COc1ccc(N(C)S(=O)(=O)c2cccc(C(=O)Nc3nc4ccccc4[nH]3)c2)cc1,0%,3%,/,?,?,/,?,/
CCn1c(SCC(=O)NCCc2ccc(F)cc2)nnc1-c1cccs1,-2%,12%,1.2%,2%,-1%,-3%,3%,1%
O=C(NCc1ccco1)c1cnn2c(C(F)(F)F)cc(-c3ccco3)nc12,-2%,15%,-6.1%,4%,-13%,-6%,-21%,0%
O=C1CC(c2ccccc2)=C(c2ccccc2)C1,/,1%,/,3%[46.1 µM],1%[46.1 µM],/,1%,/
CC1CCN(C(=O)C2CCN(S(=O)(=O)c3ccc(-n4cnnn4)cc3)CC2)CC1,-2%,25%,/,-10%[46.1 µM],-7%,/,-22%,10%
COc1cc(OC)c(NC(=O)CCNC(=O)Cn2cnc3ccccc3c2=O)cc1Cl,7%,-11%,3.8%,0%,14%,-3%,-2%,0%
COc1ccc(C2c3[nH]c4ccc(OC)cc4c3CCN2C(=O)Nc2ccccc2)cc1 (stereo unspecified),/,/,-6.4%,/,?,25µM*,?,/
O=S(=O)(c1ccc2c(c1)oc1ccccc12)N1CCOCC1,0%,19%,-1.5%,-17%,5%,-22%,-9%,-6%
CC(C)c1cccc(C(C)C)c1NC(=O)CNCC(O)c1ccccc1 (stereo unspecified),0%,-12%,/,/,/,/,?,4%
CC(Oc1ccc2ccc(=O)oc2c1)C(=O)NCCCn1ccnc1 (stereo unspecified),26%,8%,/,-13%[46.1 µM],6%[46.1 µM],/,-8%,7%
CN(C(=O)Nc1ccc(Cl)cc1)n1cnc2ccccc2c1=O,0%,-6%,/,11%[46.1 µM],-11%[46.1 µM],/,20%,-3%
CCOC(=O)CSc1nc2cc3c(cc2cc1C#N)OCCO3,0%,183%,/,10%[46.1 µM],?,/,33%[activator],0%
O=C(Cc1cccc2ccccc12)Nc1ccc(Br)cc1C(=O)O,3%,-11%,/,/,/,/,-4%,12%
CCC(=O)NC(=S)Nc1cccc(NC(=O)c2ccccc2C)c1,0%,12%,/,0%,-11%,/,-8%,/
COc1ccc(Cc2nc(C(=O)Nc3ccc(Cl)cc3)cs2)cc1,-7%,-21%,-4.5%,14%[46.1 µM],?,-15%,-16%,-56%
CCCCNc1ccc(-c2nc(-c3ccccn3)no2)cc1[N+](=O)[O-],/,/,-0.8%,/,5%[46.1 µM],9%,0%,/
O=C(OC(C(=O)NCc1ccccc1)c1ccccc1F)c1ccco1 (stereo unspecified),-8%,22%,/,1%[46.1 µM],0%,/,8%,4%
Cc1ccc(OC(=O)c2ccccc2P(=O)(O)O)cc1,-12%,-13%,0.1%,11%,23%,-16%,/,-1%
Cc1ccc(S(=O)(=O)N(CC(=O)Nc2ccccc2C(=O)O)c2ccc(Cl)cc2)cc1,0%,-10%,/,9%[46.1 µM],9%,/,-11%,?
CCc1ccc(S(=O)(=O)c2nnn3c2nc(NCc2cccc(OC)c2)c2cc(Cl)ccc23)cc1,/,/,-0.8%,-29%[46.1 µM],/,?,17%,/
C=CCn1c(SCC(=O)Nc2cc(C)nn2-c2ccccc2)nnc1C1CCCCC1,3%,-2%,-2.2%,1%&1%,-2%,-6%,-28%,0%
CC1CCCCC12NC(=O)N(CC(=O)Nc1ccc(N3CCOCC3)cc1)C2=O (stereo unspecified),8%,-6%,3.4%,-4%,1%,-2%,-2%,-2%
CC(C)(C)c1ccc(Cn2cnc(-c3ccc([N+](=O)[O-])cc3)c2)cc1,4%,7%,-13%,?,8.9µM*,8%,12%,1%
Cc1ccc(NC(=O)CC(N)=S)cc1,2%,7%,/,/,/,/,30%[activator],0%
CSCC(=O)N1CCCC(CO)(Cc2ccccc2C)C1 (stereo unspecified),-2%,-12%,/,15%[46.1 µM],-2%,/,-23%,2%
CC(=O)N1CCc2cc(S(=O)(=O)N3CCN(c4ccc(C)cc4)C(C)C3)ccc21 (stereo unspecified),/,/,-1.3%,?,-8%[46.1 µM],0%,?,/
Cc1ccc(Cl)c(OCC(=O)NCC(c2cccs2)N2CCOCC2)c1 (stereo unspecified),-9%,6%,/,?,?,/,?,/
COc1ccc(N2CCN(Cc3nc(N)nc(N4CCCc5ccccc54)n3)CC2)cc1,-2%,-11%,-1.6%,9%,12%,3%,-29%,-15%
CCn1c(C)nc([N+](=O)[O-])c1C(=O)O,-2%,1%,/,12%[46.1 µM],0%,/,6%,/
CC1CCCCC1NC(=O)COC(=O)c1ccc(S(=O)(=O)N2CCOCC2)cc1 (stereo unspecified),-9%,-1%,2.5%,-3%[46.1 µM],-2%,19%,-15%,?
COc1cc(C(CCN2CCCC2)c2c(OC)cc(OC)c3c(C)cc(=O)oc23)cc(OC)c1OC (stereo unspecified),0%,10%,/,/,/,/,7%,3%
O=C(NC1CCCCC1)c1ccc(CNc2c(N3CCOCC3)c(=O)c2=O)cc1,-1%,3%,1.2%,2%,/,-2%,13%,8%
Cn1c(=O)[nH]c(=O)c2c1nc(SCC(=O)O)n2Cc1ccccc1,0%,8%,/,/,/,/,-8%,18%
Cc1ccc(S(=O)(=O)N(C)c2ccc(OCC(=O)Nc3cccc(-n4cnnn4)c3C)cc2)cc1,1%,13%,/,/,/,/,?,4%
COc1ccc(CCNc2oc(/C=C/c3cc(OC)c(OC)c(OC)c3)nc2C#N)cc1OC,/,/,-7.9%,?,-2%[46.1 µM],-16%,-18%,/
O=C(Nc1cc(Cl)ccc1Oc1ccccc1)c1ccc(F)cc1,-38%,/,4.5%,1%,3%,-15%,0%,-40%
COc1ccc(N2CCN(C(=O)CSc3nnc4ncccn34)CC2)cc1,0%,12%,0.4%,?,7%,-7%,-2%,1%
COc1ccccc1CNC(=O)CCNS(=O)(=O)c1cc(Br)cnc1N,1%,-5%,/,/,/,/,0%,3%
COc1cc(OC)cc(C(=O)N[C@H](C(=O)NCc2cccs2)C(C)C)c1,0%,-22%,/,-29%,-23%,/,-16%,-6%
COC(=O)CC(CC(=O)OC)n1cccc1,/,11%,/,28%,19%[46.1 µM],/,-25%,/

Going on with the list.
molecule,SARS PLP yeast,RE007 growth inh,Cruzain inh Det,Marburg entry inh,Lassa entry inh,Cruzain noTriton,StopGo reporter,NS1 inh
CC(/C=C/c1ccccc1)=N/O,-4%,-8%,?,-1%[46.1 µM],5%,?,34%[activator],0%
CCC(C)N(C)C(=O)c1cc2ccccc2c(-c2ccccc2Cl)n1 (stereo unspecified),-2%,6%[18.4 µM],-4.5%,?,-8%,-9%,10%&-18%,-26%&2%
COc1ccc(CCNC(=O)c2cnc3n(c2=O)CCS3)cc1OC,11%,-3%,-4.7%,-10%,-2%,-15%,14%,-1%
CCOC(=O)c1c(-c2ccccc2)csc1NC(=O)/C(C#N)=C/c1ccc(O)c(OC)c1,9%,15%,-0.7%,4%,-11%,-3%,?,13%
Cc1nn(-c2ccccc2)c(Cl)c1C(=O)Nc1ccc(N2CCOCC2)cc1,0%,-1%,/,2%[46.1 µM],?,/,0%,-4%
CCOc1cc(/C=N/Nc2cccc(C(=O)O)c2)ccc1OC(=O)c1ccccc1,0%,-12%,/,?,?,/,4µM*,9%

2 records picked at random from those above, as already listed:
molecule,SARS PLP yeast,RE007 growth inh,Cruzain inh Det,Marburg entry inh,Lassa entry inh,Cruzain noTriton,StopGo reporter,NS1 inh
CCOC(=O)c1c(-c2ccccc2)csc1NC(=O)/C(C#N)=C/c1ccc(O)c(OC)c1,9%,15%,-0.7%,4%,-11%,-3%,?,13%
Cc1nn(-c2ccccc2)c(Cl)c1C(=O)Nc1ccc(N2CCOCC2)cc1,0%,-1%,/,2%[46.1 µM],?,/,0%,-4%
